Screening data: PubChem BioAssay, National Center for Advancing Translational Sciences (NCATS)
Six1-Eya2 inh: inhibitors of human Six1/Eya2 interaction. AlphaScreen GST-Six1/His-Eya2 binding, biochemical; hits give low values; control for the full effect not named in the record. activity change, % (concentration not given with the values). actives 0.56% (n = 360,000). AID 651725; in the data active = activity change below about -65%; inconclusive = about -30% to -65%; inactive = above about -30%; note: % is set by controls: 0 for no effect and ±100 for the full control effect
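GST-Six1 + His-Eya2 (5X stock: 250/500 nM); Tris pH 8.0, 300 mM NaCl, 0.05% BSA, 0.02% Tween 20; GSH donor/Ni acceptor beads; 1 h 37 °C dark; AlphaScreen readout.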
TRPML1 inh: blocks the human TRPML1 channel; Q9GZU1; TRPML1-inducible cells, Ca2+ dye fluorescence, FDSS; hits give low values; inhibition of EC80 agonist-evoked calcium signal; activity change, negative = inhibition, % (concentration not given with the values); actives 0.02% (n = 390,000); in the data active means activity change below about -50%; inconclusive means about -30% to -50%; inactive means above about -30%;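 note: stimulus is agonist 54-4 at its EC80 concentration; % is set by controls: 0 for no effect and ±100 for the full control effect; compound concentration not given in the record; the text of the record puts the active cut at -80%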
Target sequence (Q9GZU1 whole entry, looked up): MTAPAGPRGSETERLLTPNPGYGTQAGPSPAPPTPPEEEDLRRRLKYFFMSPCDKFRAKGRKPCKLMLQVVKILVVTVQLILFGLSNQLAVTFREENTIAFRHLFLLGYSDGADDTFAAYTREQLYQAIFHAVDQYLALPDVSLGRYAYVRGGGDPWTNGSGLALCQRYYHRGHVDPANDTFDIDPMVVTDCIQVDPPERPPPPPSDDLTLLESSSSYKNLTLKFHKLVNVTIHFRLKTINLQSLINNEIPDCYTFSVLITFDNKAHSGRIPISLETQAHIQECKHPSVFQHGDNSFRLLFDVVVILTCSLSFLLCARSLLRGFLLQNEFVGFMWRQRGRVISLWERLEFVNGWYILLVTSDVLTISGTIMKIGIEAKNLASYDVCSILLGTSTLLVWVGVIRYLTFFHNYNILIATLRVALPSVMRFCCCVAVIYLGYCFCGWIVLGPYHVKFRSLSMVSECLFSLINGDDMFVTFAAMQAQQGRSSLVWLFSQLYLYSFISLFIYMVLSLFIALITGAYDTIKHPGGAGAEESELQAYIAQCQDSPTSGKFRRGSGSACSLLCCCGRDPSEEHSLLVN
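TRPML1-DL cells, Tet-induced overnight (~16 h, 37 °C) at 1,500 cells/well, were loaded with Ca8 no-wash dye plus quencher for 45-90 min at room temperature. Compounds were pinned during FDSS kinetic reading; agonist 54-4 at EC80 (4 uM final) then added.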
CtBP-E1A inh: inhibitors of CtBP/E1A interaction; AlphaScreen GST-E1A/His-CtBP binding, 1536-well; hits give low values; control for the full effect not named in the record; activity change, % (test concentration not listed); actives 0.49% (n = 340,000); AID 651724; in the data active means activity change below about -65%; inconclusive means about -30% to -65%; inactive means above about -30%; note: % is set by controls: 0 for no effect and ±100 for the full control effect; compound concentration not given in the record
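AlphaScreen with 125 nM GST-E1A and 125 nM His-CtBP (5X stocks) in Tris pH 8.0, 300 mM NaCl, BSA, Tween 20, TCEP. Compounds preincubated 2 h at 37 deg C, then glutathione donor/nickel acceptor beads added for 1 h at 37 deg C in dark.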
PINK1 expr mod: modulators of PINK1 expression | Potency, µM (doses to about 76.6 µM), without a hit: top-dose activation (PINK1 increase), actives largely listed as activators | actives 0.2% (n = 410,000) | PINK1 immunofluorescence, high-content cytometry, 24 h; active = well fitted activation curve with a large enough effect; inconclusive = small, poorly fitted or top-dose-only effect; inactive = flat fitted curve, though single readings scatter; cell line not stated here;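 note: potency is the fitted concentration of half-maximal effect; % of control where 0% means no effect; nearly all actives have a fitted effect of over 65% in size; a mitochondrial uncoupler was the plate control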
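A stable cell line was treated with compounds at 5 concentrations for 24 hours, with CCCP as control. PINK1 levels and mitochondrial localization were measured by immunofluorescence with mitochondrial, cell and nuclear markers after fixation, read by laser-scanning cytometry.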
TRPML1 ag: activates the human TRPML1 channel. AID 624414. TRPML1-expressing cells, Ca2+ dye fluorescence, FDSS; host cell line not named in the record; reference of the full effect not given here. Q9GZU1. actives 0.12% (n = 410,000). activation, % (no concentration beside the values); in the data active = activation above about 50%; inconclusive = about 30% to 50%; inactive = below about 30%; note: 0% is about no effect; the text of the record puts the active cut at 80%
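TRPML1-DL cells, Tet-induced overnight (~16 h, 37 degrees C), loaded 45-90 min at room temperature with Ca8 no-wash calcium dye plus quencher. FDSS fluorescence: 10 s baseline, compound pin-transfer, 110 s agonist read, then EC80 54-4 (4uM final) and 110 s antagonist read.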
D2 ag: activates the human D2 dopamine receptor. P14416. DiscoveRx PathHunter D2 beta-arrestin, luminescence, 90 min; 100% = 57 uM dopamine signal. activation, % (test concentration not listed). actives 0.084% (n = 360,000); in the data active = activation above about 40%; inconclusive = about 15% to 40%; inactive = below about 15%; note: compound concentration not given in the record; the text of the record calls up to 30% inactive
Target sequence (P14416 whole entry, looked up): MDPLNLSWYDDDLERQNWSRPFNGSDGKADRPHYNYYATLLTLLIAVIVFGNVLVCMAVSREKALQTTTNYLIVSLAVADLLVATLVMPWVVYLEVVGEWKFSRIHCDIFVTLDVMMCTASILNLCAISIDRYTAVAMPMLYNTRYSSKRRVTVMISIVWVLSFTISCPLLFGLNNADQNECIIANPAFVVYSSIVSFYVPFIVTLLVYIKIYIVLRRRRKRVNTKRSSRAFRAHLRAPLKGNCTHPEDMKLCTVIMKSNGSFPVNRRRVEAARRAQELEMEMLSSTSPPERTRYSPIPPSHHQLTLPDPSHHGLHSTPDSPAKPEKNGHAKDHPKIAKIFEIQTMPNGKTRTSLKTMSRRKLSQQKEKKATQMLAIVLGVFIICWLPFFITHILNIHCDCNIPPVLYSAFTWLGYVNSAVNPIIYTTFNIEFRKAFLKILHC
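Agonist mode: compounds alone added to overnight-plated D2 PathHunter cells for 90 min at 37 C, with 57 uM final dopamine (EC100) defining full response. Beta-arrestin recruitment detected by chemiluminescent reagent, read after 1 h at ambient temperature.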
An asterisk follows results filed as active; [ ] = another dose, or the depositor's remark.

N#CCCOC1(C#CCN2CCCC2)CCCCC1 was read as Six1-Eya2 inh 13.9, TRPML1 inh 20.7, PINK1 expr mod 0.5%, TRPML1 ag 0.2 and D2 ag 7.8.
For CCCCCCNC(=O)c1ncn[nH]1 the results were Six1-Eya2 inh -3.5, TRPML1 inh 15.1, CtBP-E1A inh -2.3, PINK1 expr mod 1.2%, TRPML1 ag 1.0 and D2 ag 1.4.
Screening COc1ccccc1CNC(=O)COC(=O)c1ccc(NC(N)=O)cc1 returned Six1-Eya2 inh -4.8, TRPML1 inh -6.7, CtBP-E1A inh -4.3, PINK1 expr mod 1.3%, TRPML1 ag -1.0 and D2 ag 0.7.
Screening Cc1ccccc1-c1noc(CSc2nnc(Cc3ccccc3)n2-c2ccc(F)cc2)n1 returned TRPML1 inh 2.9, PINK1 expr mod 0.0% and TRPML1 ag 6.1.
Screening O=C(Nc1cc(C(F)(F)F)ccc1-n1cncn1)c1cn2ccccc2n1 returned Six1-Eya2 inh inconclusive, TRPML1 inh -8.5, CtBP-E1A inh inconclusive, PINK1 expr mod 0.5%, TRPML1 ag -0.7 and D2 ag 1.4.
`CCn1c(COc2ccc(Cl)cc2Cl)nc2ccccc21` gave TRPML1 inh -4.5, PINK1 expr mod 0.6% and TRPML1 ag 0.2.
For CN(C)c1ccc(C2Nc3ccccc3C(=O)N2CCN2CCNC2=O)cc1 (stereo unspecified) the results were Six1-Eya2 inh 5.8, TRPML1 inh -5.2, CtBP-E1A inh -4.4, PINK1 expr mod 1.0%, TRPML1 ag -0.7 and D2 ag -6.5.
`COc1ccccc1Nc1nc2ccccc2n1C` gave Six1-Eya2 inh -15.4, TRPML1 inh -10.5, CtBP-E1A inh 6.9, PINK1 expr mod 1.4%, TRPML1 ag -1.1 and D2 ag -1.1.
Screening C[C@H]1COC(=O)[C@@H](Cc2ccc(F)cc2)C/C=C\C[C@H](CC(=O)N(CCO)Cc2ccccc2)C(=O)N1 returned Six1-Eya2 inh -1.9, TRPML1 inh 32.0, CtBP-E1A inh 5.6, PINK1 expr mod -0.2%, TRPML1 ag -0.2 and D2 ag -9.1.
`O=C(COC(=O)c1cncc(Br)c1)Nc1ccc(F)c(F)c1F` gave Six1-Eya2 inh 10.1, TRPML1 inh 1.5, CtBP-E1A inh 6.3, PINK1 expr mod -1.5%, TRPML1 ag -0.3 and D2 ag -2.0.
Screening S=c1nc[nH]c2c1cnn2Cc1ccccc1 returned Six1-Eya2 inh -0.2, TRPML1 inh 38.9, CtBP-E1A inh 4.6, PINK1 expr mod -0.4%, TRPML1 ag 0.2 and D2 ag 0.9.
CC(Sc1nncn1C)C(=O)Nc1nnc(C(C)C)s1 (stereo unspecified) was read as Six1-Eya2 inh 0.8, TRPML1 inh -15.3, CtBP-E1A inh -2.7, PINK1 expr mod -0.6%, TRPML1 ag 0.0 and D2 ag 0.9.
For CCc1ccccc1NS(=O)(=O)c1ccc2[nH]cc(C(=O)NCC3CCCO3)c(=O)c2c1 (stereo unspecified) the results were Six1-Eya2 inh -10.5, TRPML1 inh -11.6, CtBP-E1A inh -5.6, PINK1 expr mod 0.5%, TRPML1 ag 0.7 and D2 ag 0.0.
For CCn1cc(C(=O)Nc2sc(C)c(C)c2C(=O)OC)cn1 the results were Six1-Eya2 inh 6.4, TRPML1 inh 4.0, CtBP-E1A inh 9.3, PINK1 expr mod 1.7%, TRPML1 ag -0.9 and D2 ag -0.1.
C=CCN1CCN(C(=O)CCCc2ccccc2)CC1 was read as Six1-Eya2 inh 2.8, TRPML1 inh -0.7, CtBP-E1A inh 6.2, PINK1 expr mod 2.0%, TRPML1 ag -0.3 and D2 ag -5.6.

Part of the list above in order of heavy-atom count, descending:
Screening Cc1ccccc1-c1noc(CSc2nnc(Cc3ccccc3)n2-c2ccc(F)cc2)n1 returned TRPML1 inh 2.9, PINK1 expr mod 0.0% and TRPML1 ag 6.1.
Screening COc1ccccc1CNC(=O)COC(=O)c1ccc(NC(N)=O)cc1 returned Six1-Eya2 inh -4.8, TRPML1 inh -6.7, CtBP-E1A inh -4.3, PINK1 expr mod 1.3%, TRPML1 ag -1.0 and D2 ag 0.7.
For CCCCCCNC(=O)c1ncn[nH]1 the results were Six1-Eya2 inh -3.5, TRPML1 inh 15.1, CtBP-E1A inh -2.3, PINK1 expr mod 1.2%, TRPML1 ag 1.0 and D2 ag 1.4.

Next section
`Cc1noc(C)c1S(=O)(=O)N1CCCC(C(=O)NCC2CCCO2)C1` (stereo unspecified) gave Six1-Eya2 inh 21.0, TRPML1 inh -5.1, CtBP-E1A inh 0.0, PINK1 expr mod 0.3%, TRPML1 ag -0.1 and D2 ag -3.2.
Screening C[C@@H]1NC(=O)c2cc([N+](=O)[O-])cc(I)c2OCC[C@@H](C(N)=O)NC(=O)[C@H](CCCCN)NC1=O returned Six1-Eya2 inh 5.1, TRPML1 inh 11.3, CtBP-E1A inh 4.5, PINK1 expr mod 2.6%, TRPML1 ag -0.6 and D2 ag -1.3.
Screening CC(C)CCNC(=O)C(c1ccc(O)cc1)N(Cc1ccco1)C(=O)CCC(=O)Nc1nccs1 (stereo unspecified) returned Six1-Eya2 inh -7.0, TRPML1 inh -10.2, CtBP-E1A inh -0.6, PINK1 expr mod -1.2%, TRPML1 ag -0.4 and D2 ag -1.2.
CCC(OC(=O)c1nsc(Cl)c1Cl)C(=O)NC(C)(C)C (stereo unspecified) was read as Six1-Eya2 inh -0.6, TRPML1 inh 32.7, CtBP-E1A inh -14.0, PINK1 expr mod 0.2%, TRPML1 ag 0.4 and D2 ag -3.3.
`CC(C)(C)CC(C)(C)NC(=S)NC1CCN(Cc2ccccc2)CC1` gave Six1-Eya2 inh -5.3, TRPML1 inh 0.2, CtBP-E1A inh 0.0, PINK1 expr mod 5.8%, TRPML1 ag 13.0 and D2 ag -3.9.
Screening CCCCCN(C(=O)CCC(=O)OCC(=O)c1ccc(CCC)cc1)c1c(N)n(CCCC)c(=O)[nH]c1=O returned Six1-Eya2 inh 5.3, TRPML1 inh -6.2, CtBP-E1A inh -4.5, PINK1 expr mod -0.8%, TRPML1 ag -0.1 and D2 ag -1.0.
CC(C)(C)c1ccc(C(=O)CSc2nc3ccccc3c(=O)[nH]2)cc1 was read as Six1-Eya2 inh 0.0, TRPML1 inh 1.9, CtBP-E1A inh 1.2, PINK1 expr mod 9.5%[38.3 µM], TRPML1 ag 1.2 and D2 ag -1.5.
`Cc1nn(-c2ccccc2)c(Cl)c1C(=O)NNC(=O)c1ccncc1` gave Six1-Eya2 inh -0.4, TRPML1 inh 19.2, PINK1 expr mod 4.3%, TRPML1 ag -0.3 and D2 ag -1.5.
O=C(OCc1ccccc1Cl)c1ccc(-c2nnn(Cc3ccccc3Cl)n2)cc1 was read as TRPML1 inh -22.5, PINK1 expr mod 2.1% and TRPML1 ag 1.1.
CC(C)(C)NCc1ccccc1OCc1cccs1 was read as Six1-Eya2 inh 4.0, TRPML1 inh 10.2, CtBP-E1A inh 9.6, PINK1 expr mod 0.6%[38.3 µM], TRPML1 ag -0.6 and D2 ag -1.6.
Screening Cc1ccc(CNC(=O)[C@@H]2CCC(=O)N2Cc2ccco2)cc1 returned Six1-Eya2 inh 5.2, TRPML1 inh -6.4, CtBP-E1A inh 3.4, PINK1 expr mod 0.1%, TRPML1 ag -0.8 and D2 ag -6.6.
Screening COc1ccc(NCc2cc(=O)oc3cc(NC(C)=O)ccc23)cc1 returned Six1-Eya2 inh 1.2, TRPML1 inh 18.3, CtBP-E1A inh -5.8, PINK1 expr mod 5.3%, TRPML1 ag -0.8 and D2 ag -3.4.
`CC(=O)c1ccc(NC(=O)C2CCCN(S(=O)(=O)c3ccc(-n4cnnn4)cc3)C2)cc1` (stereo unspecified) gave Six1-Eya2 inh -11.1, TRPML1 inh 10.4, CtBP-E1A inh -4.6, PINK1 expr mod 3.0%, TRPML1 ag 0.7 and D2 ag -4.8.
For CCOc1cc(C=NNC(=O)N(c2ccccc2)c2ccccc2)ccc1O the results were Six1-Eya2 inh -27.5, CtBP-E1A inh -6.9, PINK1 expr mod 7.0%, TRPML1 ag -1.0 and D2 ag 1.7.
For COc1ccc(OC)c(NC(=O)CSc2nc3ccccc3c(=O)n2CCNC(C)=O)c1 the results were Six1-Eya2 inh -1.6, TRPML1 inh 1.9, CtBP-E1A inh -2.1, TRPML1 ag 0.0 and D2 ag -2.6.
`Cc1cc(C)c(C(N)=O)c(Nc2cccc(Cl)c2)n1` gave Six1-Eya2 inh 21.2, TRPML1 inh -7.3, CtBP-E1A inh 43.4, PINK1 expr mod 4.1%[38.3 µM], TRPML1 ag -0.7 and D2 ag -3.3.
Screening O=C(NCc1cccs1)C1CCCN1C(=O)Nc1ccccc1Cl (stereo unspecified) returned Six1-Eya2 inh -1.0, TRPML1 inh 9.7, CtBP-E1A inh -2.3, PINK1 expr mod 0.8%, TRPML1 ag 1.9 and D2 ag -1.6.
`Cc1ccc(CNc2nc(NCC3CC3)nc3ccsc23)c(C)c1` gave Six1-Eya2 inh -1.3, CtBP-E1A inh -2.3, PINK1 expr mod inconclusive, TRPML1 ag -0.3 and D2 ag 6.0.
`Cc1ccc(Cl)cc1NC(=O)CN1C=NS(=O)(=O)c2ccccc21` gave TRPML1 inh -2.0, PINK1 expr mod 1.1% and TRPML1 ag -0.6.
For Nc1nc2c(C(=O)N3CCOCC3)nnn2c2ccccc12 the results were Six1-Eya2 inh -11.6, TRPML1 inh 26.6, CtBP-E1A inh -21.3, PINK1 expr mod -1.1%, TRPML1 ag 1.6 and D2 ag -8.1.
For CN(C)c1ccc(/C=C2\N=C(C(C)(C)C)OC2=O)cc1 the results were Six1-Eya2 inh 3.7, TRPML1 inh 32.0, PINK1 expr mod 3.6%, TRPML1 ag 5.4 and D2 ag 2.6.
For Cc1cc(Nc2ccc(N3CCOCC3)cc2)c2cccc(C)c2n1 the results were Six1-Eya2 inh -18.6, TRPML1 inh -15.3, CtBP-E1A inh -16.1, PINK1 expr mod 1.4%, TRPML1 ag 0.3 and D2 ag -1.8.
Screening COc1ccc(CCNC(=O)CSc2nnc3ccc(-c4ccccn4)nn23)cc1 returned Six1-Eya2 inh -18.5, TRPML1 inh -7.7, CtBP-E1A inh -1.6, PINK1 expr mod 1.3%, TRPML1 ag 1.1 and D2 ag -0.5.
`CCOC(=O)c1cccc(NS(=O)(=O)c2cnc[nH]2)c1` gave Six1-Eya2 inh 1.8, TRPML1 inh -7.1, CtBP-E1A inh 2.5, PINK1 expr mod -1.6%, TRPML1 ag 2.2 and D2 ag 1.5.
For Cc1ccc(C(=O)NCC(=O)OCc2nnc(-c3ccccc3)o2)cc1 the results were Six1-Eya2 inh -0.4, TRPML1 inh -13.7, CtBP-E1A inh -1.8, PINK1 expr mod 1.9%, TRPML1 ag 0.3 and D2 ag -3.6.
Screening S=c1[nH]nc(-c2ccco2)n1-c1ccc(Br)cc1 returned Six1-Eya2 inh 1.9, TRPML1 inh -8.2, CtBP-E1A inh -2.3, PINK1 expr mod 0.1%, TRPML1 ag -0.7 and D2 ag -1.4.
